Rce1 inhib: yeast Rce1p protease inhibitors, primary screen, biochemical, fluorescence, cell-free homogeneous | CAAX prenyl protease 2 (Saccharomyces cerevisiae (strain ATCC 204508 / S288c)), Q03530 | yeast membranes, quenched prenylated peptide cleavage fluorescence | hit rate 0.27% among 290,000 | calls only;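 active = fall in fluorescence gain of 50% or more versus controls, with final raw signal at or below 3038400; inconclusive = same 50% fall but final raw signal above 3038400; inactive = fall in fluorescence gain under 50%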;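 also: plate controls were neutral control wells for no effect and wells lacking membranes for full effect; tested at 10 µM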
Target sequence (Q03530 whole entry, looked up): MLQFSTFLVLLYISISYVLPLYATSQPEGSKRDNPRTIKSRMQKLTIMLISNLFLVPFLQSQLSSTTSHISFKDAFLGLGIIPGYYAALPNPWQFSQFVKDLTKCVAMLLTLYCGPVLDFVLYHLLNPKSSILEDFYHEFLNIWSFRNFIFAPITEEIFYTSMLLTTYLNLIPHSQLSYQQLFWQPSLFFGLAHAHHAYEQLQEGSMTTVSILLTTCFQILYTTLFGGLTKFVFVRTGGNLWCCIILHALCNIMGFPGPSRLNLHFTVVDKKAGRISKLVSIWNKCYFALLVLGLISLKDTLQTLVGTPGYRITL
UUG fidelity: modulators of yeast start codon fidelity, primary screen, whole organism, S. cerevisiae, single point, plate reader; hit rate 0.13% among 350,000; AID 602363, 2012; activity score, % at 18.7 µM; S. cerevisiae UUG-firefly luciferase reporter, luminescence/redox ratio;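 active = replicate mean at a twofold rise or more, about +100% in these data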;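 also: firefly luciferase made from a UUG start codon reports start codon fidelity; reporter light over untreated wells divided by growth signal over untreated wells; some hits fall short of that in this replicate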
PABP FP inh: PABP poly(A) RNA binding inhibitors, primary screen, biochemical, fluorescence polarization, uHTS | inhibition, % at 35 µM | hit rate 1% among 290,000;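 active = 50% or more with normal probe brightness, or confirmed in later tests; inconclusive = above 50% with abnormal brightness, or retests that disagree; inactive = below 50% or failed in later tests; about a fifth of its hits are not listed in these tables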;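 also: calls also rest on retests at 20 µM and on dose response follow-up; controls were probe without protein and protein plus probe with vehicle; some compounds called inactive have numbers as strong as hits; many hits fall short of the cut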
CSC inhib: cancer stem cell viability inhibitors, primary screen, luminescence; hit rate 1.1% among 300,000; cancer stem cell-like cells viability; AID 2717, 2010; inhibition, % at 7.5 µM;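 active = mean at 75% or more and at least half the replicates too; inconclusive = mean and replicates disagree; tested in HMLE shEcad cells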;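 also: 0% = median of negative and 100% = median of positive control wells; the first replicate is given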
eIF4H inh: human eIF4H binding inhibitors, primary screen, translation initiation inhibitor project, biochemical, uHTS, fluorescence polarization; eIF4H fluorescence polarization binding assay; hit rate 0.94% among 290,000; Eukaryotic translation initiation factor 4H (Homo sapiens), Q15056; inhibition, % at 35 µM; AID 2012, 2009;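 active = 50% or more with normal probe brightness, or confirmed in later tests; inconclusive = above 50% with abnormal brightness, or retests that disagree; inactive = below 50% or failed in later tests; about a fifth of its hits are not listed in these tables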;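 also: calls also rest on retests at 20 µM and on dose response follow-up; 0% = protein and probe with vehicle and 100% = probe without protein; strong numbers were not always called active; many hits fall short of the cut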
Env fusion inh: inhibitors of HIV-1 Env-driven cell-cell fusion, primary screen, HeLa-JRFL effector, CEM21 target cells, luciferase. hit rate 1.1% among 360,000. inhibition, % at 12.3 µM;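 active = mean replicate inhibition score of at least 50 and every replicate individually at or above 50; inconclusive = only one of the two criteria met; inactive = mean below 50 and not all replicates reaching 50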;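 also: 0% = plate neutral controls and 100% = maraviroc near 300 nM; one replicate is shown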
MT1-MMP act inh: blockers of MT1-MMP proenzyme processing, primary screen, HT1080 RFP-PRO-GFP cells, GFP/RFP fluorescence. AID 651647, 2012. GFP/RFP ratio change, % at 20 µM. hit rate 0.061% among 360,000. GFP/RFP ratio fluorescence, overnight; percent of plate control window, DMSO zero;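 active = GFP/RFP ratio change of at least 30% with cell ATP level not reduced by more than half and red fluorescence within 50% of control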; also: strong numbers were not always called active
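Compound: 20 µM single dose, 1% DMSO / System: HT1080 RFP-PRO-GFP cells / Controls: DMSO and RFP-L50D-GFP cell wells / Read-out basis: GFP/RFP fluorescence ratio / Schedule: overnight compound exposure at 37 °C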
MT1-MMP act inh RFP: second read-out of MT1-MMP act inh, no call of its own (marks repeat the call); RFP signal change, %; measured here: RFP expression control read;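 0 = vehicle wells; hits needed this value within 50% of zero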
* hit, by the source's call; i = inactive; u = inconclusive; x = no result given; & = joins results of further samples.

SMILES	Rce1 inhib	UUG fidelity	PABP FP inh	CSC inhib	eIF4H inh	Env fusion inh	MT1-MMP act inh	MT1-MMP act inh RFP
CCCC(c1nnnn1CCOC)N1CCN(c2nc3ccccc3s2)CC1 (stereo unspecified)	i	x	11	3	12	-4	-2	0
O=C(NC(=S)NC1CCC(O)CC1)c1ccco1 (stereo unspecified)	x	-10	x	-11	x	-6	1	5
COCCCC/C(=N\OCCN)c1ccc(C(F)(F)F)cc1	i	-20&-7&-16&3&-13	5&0&6	-7&2&8&15	-14&2&2	15&-14	-3&1&-1&-3&-2	2&-1&1&0&-5
CC1CN(c2oc(COc3ccc(Cl)cc3Cl)nc2C#N)CC(C)O1 (stereo unspecified)	i	1	0	22	-2	x	-4	-13
CCOC(=O)C(Cc1ccc(NC(=O)/C(=C\c2ccccc2)NC(=O)c2ccccc2)cc1)N1C(=O)c2ccccc2C1=O (stereo unspecified)	i	-3	10	-1	0	12	2	-3
COCCN(CC(=O)Nc1cccc(S(=O)(=O)N2CCCC2)c1)Cc1nc2ccccc2c(=O)[nH]1	x	-26	x	x	x	-40	-1	-8
O=C(CN1CCN(Cc2ccc(Cl)cc2)C1=O)NCCCN1CCN(c2ccc(F)cc2)CC1	i	-4	-2	5	3	68*	-1	-15
Nc1ccccc1SCC(=O)Nc1ccc2c(c1)OCO2	i	-15	-6	-9	-11	-99	3	4
Cc1nnc(NCc2ccco2)s1	i	-7	-6	7	-4	2	2	1
COc1cc(-c2nc3ccccc3nc2-c2ccc(O)c(OC)c2)ccc1O	i	-7	5	-11	2	17	-3	-4
Cc1ccc(C(=O)CSc2ncnc3sc4c(c23)CCC(C)C4)cc1 (stereo unspecified)	i	-4	11	x	-1	0	1	2
CCOCCc1nnc(NC(=O)C(C)Oc2ccccc2)s1 (stereo unspecified)	i	-1	-2	-19	8	2	0	0
O=C(COC(=O)c1ccc(C(F)(F)F)cc1)NC(=O)NC1CCCC1	x	-12	x	x	x	-5	-1	5
Cc1ccc(-n2c(=O)[nH]cc(C(=O)Nc3ccc4c(c3)OCCO4)c2=O)cc1C	i	-31	0	-23	-4	x	2	1
O=C(c1cccnc1)N1CCN(Cc2ccc3ccccc3c2)CC1	i	-10	-2	-7	1	-1	4	-4
CCOc1cc(CNCCN(C)C)c(Cl)cc1OCC(=O)NCCc1ccccc1	i	16	15	6	-4	x	2	1
Cc1cccc(NC(=O)NNS(=O)(=O)c2ccc(F)cc2)c1	i	x	5	-3	6	11	-4	-2
CC1COC(=O)C(NNc2ccc(Cl)c(Cl)c2)=N1 (stereo unspecified)	i	x	13	63	0	5	-2	-1
O=C(CN(C(=O)CCC(=O)Nc1nccs1)c1ccccc1F)NCC1CCCO1 (stereo unspecified)	i	-1	6	-1	-3	x	-1	8
CCN1C[C@@H]2[C@@H]3C(=O)N(Cc4ccccc4)C(=O)[C@@H]3[C@](Cc3ccccc3)(C1=O)N2C(=O)c1ccc(C)cc1	x	16	x	x	x	29	-6	1
O=C(Nc1cc(Cl)ccc1Cl)C1CCCO1 (stereo unspecified)	i	-8	8	-14	10	-8	-3	-2
Fc1ccc(N/N=C2/CC(c3ccccc3)Oc3ccccc32)c(F)c1 (stereo unspecified)	i	-22	1	40	-6	-27	-8	-3
CC(Cc1ccccc1)C(=O)Nc1ccc(Br)cc1 (stereo unspecified)	i	-17	7	13	-2	-11	9	-3
Cc1cnc(CNC(=O)c2csc([C@H]3C[C@H](O)[C@@H](CO)O3)n2)cn1	x	4	x	x	x	-1	0	1
O=C1c2ccc(-c3nc4ccccc4o3)cc2C(=O)N1Cc1ccccc1	x	31	x	x	x	37	-9	1

3 of the entries above in order of the MT1-MMP act inh value, low to high.
smiles	Rce1 inhib	UUG fidelity	Env fusion inh	MT1-MMP act inh	MT1-MMP act inh RFP
CCN1C[C@@H]2[C@@H]3C(=O)N(Cc4ccccc4)C(=O)[C@@H]3[C@](Cc3ccccc3)(C1=O)N2C(=O)c1ccc(C)cc1	x	16	29	-6	1
CCOCCc1nnc(NC(=O)C(C)Oc2ccccc2)s1 (stereo unspecified)	i	-1	2	0	0
Cc1ccc(C(=O)CSc2ncnc3sc4c(c23)CCC(C)C4)cc1 (stereo unspecified)	i	-4	0	1	2

Other records:
SMILES	Rce1 inhib	UUG fidelity	PABP FP inh	CSC inhib	eIF4H inh	Env fusion inh	MT1-MMP act inh	MT1-MMP act inh RFP
Cc1ccc(OCc2ccc(C(=O)Nc3ccc(S(N)(=O)=O)cc3)o2)cc1	i	-17	9	-13	-11	18	3	-2
COC(=O)c1oc2ccc(Br)cc2c1-n1cccc1	i	-19	-4	-12	-8	x	0	1
C#CCn1c2ccccc2c(=O)n1C(C)C	x	-9	x	x	x	-47	-1	1
CC(C)c1cccc(C(C)C)c1NC(=O)COC(=O)[C@H](C)NC(N)=O	i	x	5	x	-3	-2	0	2
CC1CCN(c2ccc(C(=O)NCc3cccs3)cn2)CC1	i	-14	-11	x	-6	x	-2	-4
O=C(Nc1ccnn1C1CCN(Cc2ccc(Cl)cc2)CC1)C1CCCC1	i	5	2	7	0	8	0	-1
Cc1ccc(P(=Nc2ccccc2)(N2CCOCC2)N2CCOCC2)o1	i	-6	-3	1	9	x	-4	0
Cc1ccc(/C=N/NC(=O)CN2CCN(Cc3ccccc3)CC2)o1	i	x	6	2	-1	15	0	0
COc1ccc(C(=O)c2c3ccccc3[n+]([O-])n2CCC(N)=O)cc1	i	-12	x	-6	x	-14	4	4
Cc1ccc(OCc2nnc(SCc3cc(=O)[nH]c4ccccc34)n2-c2ccccc2)cc1	i	x	4	-9	-1	23	-8	-6
Cc1cc2c(n1-c1ccc(Cl)cc1)CC(C)(C)CC2=O	i	-10	-2	-8	0	-20	-1	3
Cc1cc(NC(=O)c2sc3ccccc3c2O)no1	i	-12	3	-6	3	-36	-1	9
COC(=O)c1ccc(CNC(=O)C(Cc2ccccc2)NC(=O)c2ccccc2)cc1 (stereo unspecified)	x	-11	x	x	x	-27	-3	-1
COC(=O)Cn1c(O)c(N=NC(=O)c2ccc3c(c2)OCO3)c2ccccc21	i	x	-8	8	0	-8	0	3
O=c1cc(CSc2nnc(-c3cccnc3)n2-c2ccccc2F)nc2sccn12	i	-13	14	-1	32	x	-8	1
Cc1cc(C(=O)NNC(=O)CCCOc2ccccc2)c(C)o1	i	-17	x	-8	x	6	-3	2
Cc1oc(-c2ccc(Cl)cc2)cc1C(=O)/C(C#N)=C/Nc1ccccc1	x	x	2	5	17	9	-9	0
O=C(COC(=O)c1ccc(Cl)nc1)NCc1cccs1	i	-2	-4	-12	-6	14	-1	-1
O=C(NCCCN1CCOCC1)C(=O)NCC1CCCO1 (stereo unspecified)	i	1	1	-8	-4	u	3	3
CCOC(=O)Cn1c(=O)oc2cc(S(=O)(=O)Nc3ccc(F)cc3)ccc21	i	-3	11	-15	-2	-6	2	7
Cc1cccnc1NC(=O)c1ccc(COc2ccccc2)o1	i	2	2	-12	-5	6	3	8
COc1ccc(OC)c2[nH]c(=O)c(CCNC(=O)c3ccc(S(=O)(=O)N4CCCC4)cc3)cc12	i	x	-8	-8	4	x	2	-3
Cc1ccccc1NC(=O)Cc1nnc(SCC(=O)N2CCN(c3ccccc3)CC2)n1C	i	-11	-11	5	-3	x	6	5
CCc1ccccc1C1C(=O)c2ccccc2C1=O	i	-18	x	11	x	19	-9	1
Cc1ccc2cccc(Oc3ncnc4scc(-c5ccc(Cl)cc5)c34)c2n1	i	x	0	-19	1	x	-12	-8
The list continues.
SMILES	Rce1 inhib	UUG fidelity	PABP FP inh	CSC inhib	eIF4H inh	Env fusion inh	MT1-MMP act inh	MT1-MMP act inh RFP
O=S(=O)(Nc1cc(Cl)cc(Cl)c1)N1CCOCC1	i	-6	-6	-4	10	3	1	1
O=C(CN1C(=O)C2C3C=CC(C3)C2C1=O)Nc1cccc(S(=O)(=O)N2CCCC2)c1 (stereo unspecified)	i	-11	0	-6	7	-16	5	6
COC(=O)C1CCN(S(=O)(=O)Cc2ccccc2)CC1	i	-9	-5	9	-7	x	2	4
Cc1ccc2[nH]c(=O)c(CN(Cc3cccs3)C(=S)NCc3ccco3)cc2c1	i	-16	11	-6	-2	9	-7	-6
Cc1cccc(S(=O)(=O)Nc2ccc(-n3c(C)nc4ccccc4c3=O)cc2)c1	i	-8	x	-9	x	-8	4	2
COc1ccc(NC(=S)N2CCC(C(=O)N3CCCCCC3)CC2)cc1	x	-18	3	-22	-1	-21	6	6
N#Cc1sc2nc(-c3cccs3)cc(-c3ccc(Cl)cc3)c2c1N	i	x	12	x	12	x	-7	-4
COc1ccc(Cc2nc3ccccc3[nH]c2=O)cc1	i	-13	4	3	-3	-3	0	2
CC(=O)Cc1nsc(NC(=O)c2ccc(COc3ccccc3C)o2)n1	i	-10	6	x	-11	0	-2	-4
COC(=O)C1=C(C)NC(C)=C(C(=O)OC)C1c1ccc(OC(=O)c2oc3ccccc3c2C)c(OC)c1	i	x	-6	-1	7	-113	2	2
Cc1cccc(-n2nnc(C(=O)NCc3ccccc3Cl)c2N)c1	i	-10	-4	-4	3	5	2	-1
CCN1CCN(C(=O)CS(=O)(=O)Cc2nc(-c3ccccc3C)oc2C)CC1	i	-15	0	-9	3	1	2	2
O=C(COC(=O)/C=C/c1ccc(Cl)cc1Cl)NCc1ccco1	i	x	0	-5	6	23	-1	-1
COc1ccc(NC(=O)CCN2C(=O)C3C4CCC(C4)C3C2=O)cc1 (stereo unspecified)	i	-14	7	-1	9	25	3	8
Cc1ccccc1NCCC(=O)Nc1ccc(Cl)cc1	i	-11	10	16	0	-4	1	1

Filtered by structure: the entries above containing four or more nitrogen atoms (11)
SMILES	Rce1 inhib	UUG fidelity	PABP FP inh	CSC inhib	eIF4H inh	Env fusion inh	MT1-MMP act inh	MT1-MMP act inh RFP
CCCC(c1nnnn1CCOC)N1CCN(c2nc3ccccc3s2)CC1 (stereo unspecified)	i	x	11	3	12	-4	-2	0
COCCN(CC(=O)Nc1cccc(S(=O)(=O)N2CCCC2)c1)Cc1nc2ccccc2c(=O)[nH]1	x	-26	x	x	x	-40	-1	-8
O=C(CN1CCN(Cc2ccc(Cl)cc2)C1=O)NCCCN1CCN(c2ccc(F)cc2)CC1	i	-4	-2	5	3	68*	-1	-15
O=C(CN(C(=O)CCC(=O)Nc1nccs1)c1ccccc1F)NCC1CCCO1 (stereo unspecified)	i	-1	6	-1	-3	x	-1	8
Cc1cnc(CNC(=O)c2csc([C@H]3C[C@H](O)[C@@H](CO)O3)n2)cn1	x	4	x	x	x	-1	0	1
O=C(Nc1ccnn1C1CCN(Cc2ccc(Cl)cc2)CC1)C1CCCC1	i	5	2	7	0	8	0	-1
Cc1ccc(/C=N/NC(=O)CN2CCN(Cc3ccccc3)CC2)o1	i	x	6	2	-1	15	0	0
Cc1ccc(OCc2nnc(SCc3cc(=O)[nH]c4ccccc34)n2-c2ccccc2)cc1	i	x	4	-9	-1	23	-8	-6
O=c1cc(CSc2nnc(-c3cccnc3)n2-c2ccccc2F)nc2sccn12	i	-13	14	-1	32	x	-8	1
Cc1ccccc1NC(=O)Cc1nnc(SCC(=O)N2CCN(c3ccccc3)CC2)n1C	i	-11	-11	5	-3	x	6	5
Cc1cccc(-n2nnc(C(=O)NCc3ccccc3Cl)c2N)c1	i	-10	-4	-4	3	5	2	-1

Screening results deposited in PubChem BioAssay by several laboratories.
